# Source: PubChem BioAssay
# KCNQ2 enhance: potentiators of rat KCNQ2 potassium channel; CHO-K1 KCNQ2, FluxOR thallium flux fluorescence; active compounds read high; B-score at 10 µM; hit rate 0.54% among 310,000;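 active means fluorescence ratio B-score at least 3 SD of library B-scores, with initial fluorescence B-score within 3 SD, cut at about 5.3 in these data; same plate scores as AID 2156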;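 further: B-score of peak minus minimum over baseline fluorescence ratio after K+ and Tl+ stimulus; positive B-score means potentiation of KCNQ2 with more thallium influx and brighter signal; only the inactives scoring about 0 or higher are listed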
# Target sequence (O88943 whole entry, looked up): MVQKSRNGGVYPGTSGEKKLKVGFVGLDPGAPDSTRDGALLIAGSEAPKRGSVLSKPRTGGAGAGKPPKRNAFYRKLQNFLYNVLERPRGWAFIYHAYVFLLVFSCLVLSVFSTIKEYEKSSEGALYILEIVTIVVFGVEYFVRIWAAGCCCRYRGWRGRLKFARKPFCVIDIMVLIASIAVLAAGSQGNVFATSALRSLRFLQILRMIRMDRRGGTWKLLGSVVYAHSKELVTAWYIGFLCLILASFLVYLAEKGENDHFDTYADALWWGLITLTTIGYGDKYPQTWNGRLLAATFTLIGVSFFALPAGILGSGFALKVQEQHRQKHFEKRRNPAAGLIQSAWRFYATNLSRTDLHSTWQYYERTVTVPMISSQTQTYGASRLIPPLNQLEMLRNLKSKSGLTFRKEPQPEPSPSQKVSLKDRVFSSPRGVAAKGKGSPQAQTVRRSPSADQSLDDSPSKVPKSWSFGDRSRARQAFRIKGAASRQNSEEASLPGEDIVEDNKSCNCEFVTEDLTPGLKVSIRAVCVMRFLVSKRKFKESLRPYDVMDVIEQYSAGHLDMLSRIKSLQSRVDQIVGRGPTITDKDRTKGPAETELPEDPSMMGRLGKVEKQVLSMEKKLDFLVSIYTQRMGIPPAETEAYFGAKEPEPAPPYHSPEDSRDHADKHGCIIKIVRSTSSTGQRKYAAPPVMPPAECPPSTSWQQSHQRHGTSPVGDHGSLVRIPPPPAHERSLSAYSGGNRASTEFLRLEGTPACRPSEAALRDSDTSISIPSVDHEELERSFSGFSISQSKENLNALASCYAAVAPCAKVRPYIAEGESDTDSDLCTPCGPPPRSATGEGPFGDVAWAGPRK
# KCNQ2 enhance baseline: also measured in KCNQ2 enhance; calls as there; B-score; compound at 10 µM; measured here: initial fluorescence intensity artifact check;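 brightness before thallium and not channel activity; 0 = typical well and far values either way flag optical interference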
# Active calls of the source: *. This is a subset. The share of hits here may be higher or lower than overall.
# Order of results: KCNQ2 enhance baseline, KCNQ2 enhance
CN(C)S(=O)(=O)c1cccc(NC(=O)Cn2cnc3ccccc3c2=O)c1
 : -0.02, 0.68
CCOC(=O)c1sc2nc(NC(=O)C3CC3)sc2c1C
 : -0.26, 1.5
COc1ccc(C2(O)CN(c3ccc(C)cc3)C3=[N+]2CCCC3)cc1 (centres undefined)
 : -1.3, 0.17
COc1cccc(CNC(=O)CCC2CCCN(C(=O)CCc3c(C)noc3C)C2)c1 (centres undefined)
 : -0.1, 0.9
Cc1cccc(N2C(=O)C(Cc3ccccc3)NC2=S)c1 (centres undefined)
 : -0.56, 0.51
CC(=O)N1N=C(c2ccccc2)OC1c1cccnc1 (centres undefined)
 : 0.15, 0.71
CCNS(=O)(=O)c1ccc(OCCNS(C)(=O)=O)cc1
 : -0.72, 1.5
COCc1c(C(=O)N/N=C(/C)c2ccccc2)nnn1-c1nonc1N
 : -0.43, 1.4
O=C(CCC(=O)OCC(=O)c1ccc(F)cc1)NC1CCCCC1
 : -1.4, 0.06
COc1cc(/C=N/NC(=O)c2cccc(NC(=O)c3ccccc3Cl)c2)ccc1O
 : -0.52, 0.76
NC(=O)c1ccc(NC(=O)COC(=O)CCCc2c[nH]c3ccccc23)cc1
 : -0.02, 1.1
CCOC(=O)C(=O)Nc1ccccc1C(=O)NCc1ccccc1
 : -0.45, 1.6
CCOC(=O)c1ccc(NC(=O)CSc2nc(N)c(NC(=O)c3ccc(Br)o3)c(=O)[nH]2)cc1
 : 0.16, 0.23
CC(=O)C[C@H]1c2cc(C(F)(F)F)ccc2S(=O)(=O)N1C1CCCCC1
 : -0.31, 0.09
O=c1c2ccc(Cl)cc2nc(-c2cccc(C(F)(F)F)c2)n1O
 : 0.15*, 18*
CCCNC(=O)c1ccc2c(=O)n(Cc3ccco3)c(=S)[nH]c2c1
 : 1.4, 0.53
CCOc1ccc(-c2noc(CCCC(N)=O)n2)cc1OC
 : -0.77, 2.6
O=C(CSc1nnc(-c2ccccc2)o1)Oc1ccc(Br)cc1
 : 0.67, 0.05
CC1CCN(c2ccc(C(=O)OCC(=O)NCCN3C(=O)CSC3=O)cc2[N+](=O)[O-])CC1
 : -0.28, 1.6
COc1cccc(C2=CC(=O)CCC2)c1
 : -2.1, 0.62
S=C(NCc1ccc2c(c1)OCO2)NC1CCN(Cc2ccccc2)CC1
 : 0.02, 1
COc1ccc(C(=O)c2ccccc2)cc1
 : -0.44, 0.05
O=C(Nc1cccnc1)c1cc(F)c(F)cc1Cl
 : -1.1, 0.39
COc1ccccc1CCC(=O)Nc1ncc(C)s1
 : 0.72, 0.24
Cc1ccccc1CNC(=O)CCc1ccccc1
 : -1.1, 0.24
COc1cc(C(=O)N/N=C/c2sc(=O)n(-c3ccccc3)c2Cl)cc(OC)c1OC
 : -0.05, 0.16
Cc1nc(C)c(C(=O)N(c2ccc(C)c(C)c2)C(C(=O)NCc2ccco2)c2ccccc2)s1 (centres undefined)
 : -0.04, 1.2
CCCCC(CC(O)COCCC)c1n[nH]c(=S)n1-c1ccccc1 (centres undefined)
 : -0.49, 0.44
CCN(CC)S(=O)(=O)c1ccc(OC)c(NC(=O)c2cccc([N+](=O)[O-])c2C)c1
 : -2.8, 1.1
CC[C@@]12C(=O)N(c3ccccc3)C(=O)N1[C@H](c1ccc(Br)cc1)[C@@H]1C(=O)N(C(C)(C)C)C(=O)[C@@H]12
 : -2.8, 0.67
CCN(CC)c1nc(C)c(C(C)=O)cc1C#N
 : -2.3, 0.41
CCCc1nc2ccccc2c(=O)n1CC(=O)c1ccccc1
 : 1.5, 0.84
Cc1ccc(C(=O)CCC(=O)O)cc1
 : 1.1, 0.22
Cc1nn(C)cc1CN1CCCC(C(=O)c2ccc(-c3ccccc3)cc2)C1 (centres undefined)
 : -1.1, 2
O=C(Nc1scc(-c2ccccc2)c1C(=O)O)c1ccco1
 : -0.85, 0.4
CCOC(=O)N1CCC(NC(=O)CS(=O)Cc2nc(-c3ccccc3C)oc2C)CC1 (centres undefined)
 : -1.1, 0.27
CCN(CC(=O)Nc1c(F)cccc1F)C(=O)c1n[nH]c2ccccc12
 : 0.49, 0.98
O=C(Nc1ccc(F)cc1)c1nc[nH]c1C(=O)Nc1ccccc1[N+](=O)[O-]
 : -1.6, 0.72
CCC(Sc1nc2sc(C(=O)OC)c(C)c2c(=O)n1N)C(=O)N(CC)CC (centres undefined)
 : 1.4, 0.07
CC(C(N)=O)N1C(=O)NC2(CCCc3ccccc32)C1=O (centres undefined)
 : -0.69, 0.46
CCCc1nc(SCc2ccc(Cl)cc2Cl)n[nH]1
 : -0.21, 0.27
Cc1cccc(N(C)c2ncnc3onc(-c4ccc(F)cc4)c23)c1C
 : -0.57, 1.9
CC(C)n1c(Sc2nccn2C)nc2c1c(=O)n(C)c(=O)n2C
 : -1.3, 1.5
Cc1cc(N2CCCC2)ccc1/C=N/n1cnnc1
 : -0.61, 1
COc1ccc(CNC(=O)c2ccc(CS(=O)(=O)c3ccc(Br)cc3)o2)cc1
 : -0.2, 0.03
Cc1ccc(NC(=O)CCc2nnc3ccc(N4CCOCC4)nn23)cc1C
 : -0.25, 0.78
CCc1[nH]nc2c1C1(CCOC1C)C(C#N)=C(N)O2 (centres undefined)
 : 0.59, 0.62
C/C(=C\c1ccccc1)C(=O)Nc1ccc(S(=O)(=O)Nc2ncccn2)cc1
 : 0.52, 0.65
C/C(=C1\SC(N2CCOCC2)=NC1=O)c1ccc(C)cc1
 : -1, 0.1
Cc1ccc(-c2nc3ncccc3o2)cc1NC(=O)c1ccc([N+](=O)[O-])o1
 : 0.46, 0.86
COC(=O)c1sc2nc3c(c(-c4cccs4)c2c1N)CCCC3
 : -0.78, 0.51
COC(=O)CCn1nc(-c2ccc(C)cc2)c2ccccc2c1=O
 : -1.4, 0.5
O=C(COC(=O)CSc1ccc([N+](=O)[O-])cc1)NCc1ccco1
 : 0.84, 0.33
CCOC(=O)C1(CCOc2ccccc2)CCN(Cc2ccc(OCCO)cc2)CC1
 : 1.1, 0.51
COc1cccc(CNC(=O)CCC2CCCN(C(=O)c3ccoc3)C2)c1 (centres undefined)
 : 3.8, 0.47
COC(=O)c1cc2sc(Cl)cc2n1CC(=O)NCCC(C)C
 : 1.5, 1.1
O=C(O)c1cc(CN2CCOCC2)oc1-c1ccccc1
 : -0.4, 1.1
CCOC(=O)C(N)CSC1CC(=O)N(c2ccc(C(=O)OC)cc2)C1=O (centres undefined)
 : -1.2, 0.19
Cc1ccc(C(=O)NCC(=O)OCc2csc(-c3ccccc3)n2)cc1
 : -3.3, 0.29
Cc1ccc(NC(=S)N2CCN(c3nccc(C(F)(F)F)n3)CC2)c(C)c1
 : 1.4, 0.21

# Additional results:
# Order of results: KCNQ2 enhance baseline, KCNQ2 enhance
Cc1nn(Cc2ccc(Cl)cc2Cl)c(C)c1NC(=O)Cn1nc([N+](=O)[O-])c(Cl)c1C
 : 0.87, 0.04
CCOc1ccccc1N1CCN(CC(=O)NCCc2ccc(S(N)(=O)=O)cc2)CC1
 : -1.3, 1.4
CC1CC(C)CN(C(=O)CCNC(=O)c2ccccc2Cl)C1 (centres undefined)
 : 1.3, 0.36
Cc1ccc2c(ccn3cc4c(c(=O)n(C)c(=O)n4C)c23)c1
 : -2.4, 2
CCOC(=O)Cn1c(=NC(=O)CN2C(=O)CCC2=O)sc2cc(S(N)(=O)=O)ccc21
 : 0.06, 0.73
O=C(O)CCSc1nnc(-c2ccncc2)n1-c1ccccc1
 : -1.7, 0.89
COc1ccc(C2Nc3ccccc3C(=O)N2Cc2ccco2)cc1COc1ccc(NC(C)=O)cc1 (centres undefined)
 : -1.6, 0.1
CC1=C(C(=O)Nc2cccnc2)C(c2cccnc2)n2ncnc2N1 (centres undefined)
 : -1.9, 1.5
Cc1ccc(Cl)cc1NC(=O)C1CC(=O)Nc2ncnn21 (centres undefined)
 : 0.55, 0.02
O=C(Cc1ccccc1)NCCc1ccc(Cl)cc1Cl
 : -0.97, 0.54
Cn1c(=O)c2sccc2n2c(CCCC(=O)N3CCCCC3)nnc12
 : -0.33, 0.51
Cc1cccc(NC(=O)N2CCCCCC2)c1C
 : 0.64, 0.74
O=C(COc1ccccc1Cl)NNC(=O)C1CCCO1 (centres undefined)
 : -0.01, 0.25
COc1ccc(/C=N/NC(=O)c2ccoc2C)cc1OC
 : 0.3, 0.71
O=P(c1ccccc1)(c1ccccc1)c1ccc(O)cc1
 : -0.04, 0.06
Cc1ccc(OCC(O)CNS(=O)(=O)c2ccccc2C(=O)O)cc1 (centres undefined)
 : -0.62, 0.4
CCOC(=O)CN(Cc1sccc1C)C(=O)Nc1cccc(OC)c1
 : -2.2, 1.5
O=C(CCS(=O)(=O)c1ccccc1)Nc1nc(-c2ccccn2)cs1
 : -0.02, 0.57
N#Cc1cccc(NC(=O)Cn2cnc(S(=O)(=O)N3CCCCC3)c2)c1
 : -0.57, 0.36
COCCCn1c(C)nnc1SCC(=O)NNC(=O)COc1ccc(Cl)cc1
 : -0.56, 1.1
Cc1nnc2ccc(-c3cccc(NC(=O)c4ccc(Cl)nc4)c3)nn12
 : -0.15, 0.92
COc1ccc(-c2cc(C(=O)N3CCOCC3)no2)cc1
 : -1.8, 0.25
Cc1ccnc(NS(=O)(=O)c2ccc(NC(=O)CCOc3ccccc3)cc2)n1
 : 0.26, 0.37
Cc1ccc(C(=O)NCCC(=O)N2CCCC2)cc1
 : 1.4, 0.83
COc1ccc(NC(=O)C2CCCN(S(C)(=O)=O)C2)c(OC)c1 (centres undefined)
 : -0.72, 1.6
Cc1cccc(Cn2c(Sc3nc(C)cs3)nc3c2c(=O)[nH]c(=O)n3C)c1
 : -1.2, 0.3
CCOc1ccc2[nH]c(=O)c(C(c3nnnn3Cc3ccco3)N3CCC(C)CC3)cc2c1 (centres undefined)
 : -0.33, 0.94
COc1cccc(/C=N\NC(=O)c2cc(OCC(F)(F)F)ccc2OCC(F)(F)F)c1
 : -0.02, 0.6
Cc1n[nH]c(C)c1CCN(C)C(=O)C1CCC(=O)N(CC2CCCCC2)C1 (centres undefined)
 : 1, 0.11
C/C(CC(=O)Nc1ccccn1)=N\NC(=O)Cc1cccc2ccccc12
 : -2.2, 0.13
COC(=O)C(C)N(C#N)c1nc(NC(C)C)nc(SC)n1 (centres undefined)
 : -1.2, 0.18
COc1cc(/C=N/N2CCCCC2)cc(OC)c1O
 : 0.03, 0.68
Cc1ccc2c(Cl)c(C(=O)Nc3cccnc3)sc2c1
 : -0.25, 0.2
c1ccc(-n2nnnc2SCc2cccc(CSc3nnnn3-c3ccccc3)n2)cc1
 : -0.52, 1.4
CCOc1ccc(CCNC(=O)CN(C)S(=O)(=O)c2ccc3c(c2)CCC(=O)N3)cc1OCC
 : 0.13, 0.05
CC(=O)N1CCN(C(=O)COc2ccc(N(C)S(=O)(=O)c3cccs3)cc2)CC1
 : 0.32, 1
O=C(Cn1cc([N+](=O)[O-])cn1)Nc1ccc(Cn2cc(Br)cn2)cc1
 : -0.81, 2.5
CC1CCc2c(C(=O)OCC(=O)Nc3cccc(S(=O)(=O)N4CCCCCC4)c3)csc2C1 (centres undefined)
 : -0.09, 2.6
COc1ccc(C2C(C#N)=C(N)N(c3sc4c(c3C#N)CCCC4)C3=C2C(=O)CC(C)(C)C3)cc1OC (centres undefined)
 : -1.5, 0.25
CCCCCCC1CC(CSC(=N)N)OC1=O (centres undefined)
 : 0.06, 1.2
C/C(N)=C(/C#N)C(=O)COC(=O)c1cc2c(s1)CCC(C)C2 (centres undefined)
 : -0.41, 1.2
Nc1nc(CC(=O)CSc2ccc(Cl)cc2)nc(Nc2ccc(F)cc2)n1
 : 0.01, 0.46
O=C(COC(=O)CNC(=O)c1ccccc1)Nc1cccc(Br)c1
 : -0.73, 0.59
COc1ccccc1NC(=O)c1c(Nc2ccccc2C)sc(C(=O)Nc2cccc(Cl)c2)c1N
 : 0.21, 1.4
CS(=O)(=O)N(CC(=O)Nc1ccccc1C(=O)N1CCOCC1)c1ccccc1
 : 0.98, 0.16

# Five compounds picked at random from those above:
# Order of results: KCNQ2 enhance baseline, KCNQ2 enhance
COC(=O)c1sc2nc3c(c(-c4cccs4)c2c1N)CCCC3
 : -0.78, 0.51
Cc1nn(C)cc1CN1CCCC(C(=O)c2ccc(-c3ccccc3)cc2)C1 (centres undefined)
 : -1.1, 2
CS(=O)(=O)N(CC(=O)Nc1ccccc1C(=O)N1CCOCC1)c1ccccc1
 : 0.98, 0.16
CC1CCN(c2ccc(C(=O)OCC(=O)NCCN3C(=O)CSC3=O)cc2[N+](=O)[O-])CC1
 : -0.28, 1.6
NC(=O)c1ccc(NC(=O)COC(=O)CCCc2c[nH]c3ccccc23)cc1
 : -0.02, 1.1

# Following part:
# Order of results: KCNQ2 enhance baseline, KCNQ2 enhance
COc1ccc(NS(=O)(=O)c2cccc(-c3nnc(-c4ccccc4)o3)c2)cc1
 : -0.17, 1.4
CCCC1=[N+](CC(C)=O)CCn2c(C)ccc21
 : -0.69, 1.1
Cc1ccc(OCC(=O)NCCCNC(=O)c2ccc(C)nc2)cc1
 : -0.02, 0.93
CCOC(=O)N1CCN(C(=O)CCCn2c(=S)[nH]c3ccccc3c2=O)CC1
 : -0.56, 0.58
Cc1ccc2[nH]c3c(=O)n(CC(=O)NCc4ccco4)ncc3c2c1
 : -0.36, 0.08
Cc1cc(S(=O)(=O)NCc2ccco2)c(C)s1
 : -0.33, 0.49
Cc1ccc(C(=O)/C=C2/NC(=O)CS2)cc1
 : 0.45, 2.4
Cc1cc(NC(=O)c2cc(C(C)(C)C)oc2C)no1
 : -1.1, 1.6
O=C(N/N=C/c1ccco1)c1ccccn1
 : 0.63, 1.6
COc1cccc(Nc2nc3ccc(OC)cc3s2)c1
 : -0.05, 1.8
O=C(NCc1nnc2c(C(F)(F)F)cc(Cl)cn12)c1ccc(Br)o1
 : 0.62, 0.86
C/C=C/C=N/Nc1nc(-c2ccc([N+](=O)[O-])cc2)cs1
 : -0.68, 0.4
COC(=O)c1ccc(COc2ccccc2/C=N/O)o1
 : 0.17, 0.23
CN1CCCCC1CCN1c2ccccc2Sc2ccc(S(C)=O)cc21 (centres undefined)
 : -1.1, 3.2
